AF4-AF9 inh: inhibitors of human MLL-AF4/AF9 interaction. AlphaScreen, biotin-AF4 peptide binding to FLAG-AF9. AID 651704. 0.47% of 350,000 active. P42568. inhibition, % at 10 µM;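 active = every replicate reaching a set inhibition limit, whatever the replicate mean, cut at about 25% in these data; inconclusive = mean inhibition reaches that limit but some replicates miss it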;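 note: 0% = plate neutral control median and 100% = total signal loss; the record names both 10 and 1 µM as test concentration; the first replicate is given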
Target sequence (P42568 whole entry, looked up): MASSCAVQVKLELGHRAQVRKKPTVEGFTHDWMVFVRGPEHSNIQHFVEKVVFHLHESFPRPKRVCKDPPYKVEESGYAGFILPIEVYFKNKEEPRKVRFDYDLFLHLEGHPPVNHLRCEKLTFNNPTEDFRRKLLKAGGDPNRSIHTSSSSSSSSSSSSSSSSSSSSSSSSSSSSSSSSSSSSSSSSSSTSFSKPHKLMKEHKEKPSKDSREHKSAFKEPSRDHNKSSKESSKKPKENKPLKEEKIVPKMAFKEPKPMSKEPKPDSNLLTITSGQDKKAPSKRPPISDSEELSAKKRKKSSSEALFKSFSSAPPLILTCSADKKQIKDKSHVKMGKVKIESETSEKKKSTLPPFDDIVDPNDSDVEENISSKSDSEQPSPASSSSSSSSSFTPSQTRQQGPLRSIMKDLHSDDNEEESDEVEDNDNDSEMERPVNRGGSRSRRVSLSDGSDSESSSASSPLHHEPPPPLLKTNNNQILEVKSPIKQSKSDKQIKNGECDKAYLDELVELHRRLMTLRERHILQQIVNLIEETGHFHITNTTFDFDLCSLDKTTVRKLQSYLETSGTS
FGF22 binding: shifts melting point of recombinant human FGF22; recombinant FGF22 thermal shift, SYPRO orange fluorescence; percent of sucrose octasulfate shift, DMSO zero; calls only at 9.99 µM; 1.5% of 340,000 active; AID 651658;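 active = melting point raised past a set limit in the mean and every replicate; inconclusive = no clear call; three in four hits are not shown here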
Target sequence (Q9HCT0 whole entry, looked up): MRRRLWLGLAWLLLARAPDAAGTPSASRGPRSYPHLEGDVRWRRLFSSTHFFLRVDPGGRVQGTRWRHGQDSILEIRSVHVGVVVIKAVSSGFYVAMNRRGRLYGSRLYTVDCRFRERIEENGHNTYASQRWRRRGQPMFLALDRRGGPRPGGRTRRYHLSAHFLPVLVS
HNF4A DNA FP: change in binding of human HNF4 alpha to DNA. P41235. 0.3% of 360,000 active. activity change, % at 10 µM. HNF4a-FITC DNA binding, fluorescence polarization, 1 h. AID 1224865; in the data active = activity change above about 30%, passing the limit was not always enough;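 note: controls were the assay level and a saturating level of protein; the project sought stronger binding though the title names inhibitors; some compounds called inactive have numbers as strong as hits; positive values seem to mean higher polarization but the record does not say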
Vif A3G: inhibitors of Vif binding to APOBEC3G peptide, primary screen, biochemical, TR-FRET, GST-Vif 1-94, biotin-A3G peptide, dose response retest (AID 1117319); TR-FRET GST-Vif / biotin-A3G peptide binding; higher % means a stronger effect; test concentration not given here; strong numbers were not always called active; one-dose inhibition, %; IC50 in µM for titrated hits; 0.57% of 260,000 active;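 active = above the screen mean plus three standard deviations and confirmed in dose response; inconclusive = results disagree or hit not tested in dose response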;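 note: Vif residues 1-94 fused to GST binding biotinylated APOBEC3G peptide 110-148; 0% = full assay without inhibitor and 100% = GST in place of GST-Vif; retest series ran down from 100 µM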
Ecoli rRNA inh: inhibitors of bacterial rRNA selective over humanized ribosomes; E. coli WT GFP vs humanized-ribosome RFP mutants, fluorescence, 24 h; stronger effect = lower value; DMSO median 0, no signal -100; GFP signal change (wild-type ribosome), % (test concentration not listed); 1.6% of 350,000 active; AID 720706;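 active = significant combined selectivity score with lowered wild-type GFP, culture density cut under 30%, mutant RFP and density less affected; inactive = any of these conditions unmet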; note: one replicate is shown; some compounds called inactive have numbers as strong as hits
ALR inh: human ALR oxidase inhibition via reduced H2O2; P55789; purified ALR, DTT oxidation, H2O2 HRP-luminol luminescence; inhibition, % (test concentration not listed); 3.8% of 290,000 active;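 active = mean and each replicate at 75% or more; inconclusive = only one of the two met; inactive = neither met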;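 note: stock transfer was 7.5 nL into about 7.5 µL; 0% = neutral wells and 100% = wells with inactivated enzyme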
Target sequence (P55789 whole entry, looked up): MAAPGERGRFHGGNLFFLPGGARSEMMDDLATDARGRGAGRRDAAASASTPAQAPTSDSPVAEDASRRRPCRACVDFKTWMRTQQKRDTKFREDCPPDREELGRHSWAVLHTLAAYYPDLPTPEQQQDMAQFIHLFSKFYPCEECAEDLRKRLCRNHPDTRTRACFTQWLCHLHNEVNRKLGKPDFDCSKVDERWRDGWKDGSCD
E coli growth: inhibitors of Escherichia coli growth. OD600 absorbance (concentration not given with the values). 0.21% of 330,000 active. OD600, 23 h; stronger effect = lower value;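 active = OD600 absorbance below the run mean of sample wells minus 3.6 SD, in any replicate, cut at about 0.56 in these data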;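 note: stock transfer was 300 nL into about 60 µL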
Ecoli rRNA inh OD600: recorded beside Ecoli rRNA inh, whose call it bears; OD600 change, %; measured here: OD600 growth;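 optical density of the mix in the first replicate; 0 = DMSO median and -100 = no signal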
Ecoli rRNA inh RFP: further read-out of Ecoli rRNA inh, marked with its call; RFP signal change, %; measured here: RFP humanized mutant strains;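 first replicate; 0 = DMSO median and -100 = no signal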
An asterisk follows results filed as active; i = inactive; ? = inconclusive; . = not tested or not shown; & = joins results of further samples. Some of the compounds tested. The share of hits here may be higher or lower than overall.

AF4-AF9 inh	FGF22 binding	HNF4A DNA FP	Vif A3G	Ecoli rRNA inh	Ecoli rRNA inh OD600	Ecoli rRNA inh RFP	ALR inh	E coli growth	compound
.	.	2.3	16%	.	.	.	8	0.75	CC(C)COP(=O)(c1ccc(N(C)C)cc1)C(Nc1ccccc1)c1ccccc1 (configuration not stated)
3.1	i	-2.7	.	-7	-16	-3.9	24	0.69	Cc1ccc(CN2C(=O)C(CC(C)C)Nc3ncnc(N4CCN(c5ccccn5)CC4)c32)cc1 (configuration not stated)
-7.4	i	1.8	.	0	6	-3.4	-5	0.61	Cc1ccc2nc3c(cc(C(=O)NCC4CCCO4)c(=N)n3C3CCCC3)c(=O)n2c1 (configuration not stated)
.	.	-0.9	24%	.	.	.	1	.	C/C(CC(=O)NCc1ccco1)=N\NC(=O)Cc1ccc(Cl)cc1
.	.	2.8	2%	.	.	.	1	0.65	Cc1cc(Cl)ccc1NC(=S)NCc1ccccc1Cl
-2.8	i	3.2	20%	11	18	-1.3	-1	0.71	C=CCOc1ccc(/C=C/C(=O)OCC(=O)NCC(=O)Nc2c(C)cc(C)cc2C)cc1
-1.7	i	.	.	4	8	2.6	.	.	C[C@@H]1CN([C@H](C)CO)C(=O)c2cc(NC(=O)Cn3cnnn3)ccc2O[C@@H]1CN(C)CC1CCCCC1
-1.1	i	3.1	-9%	7	13	0.6	.	0.64	Cc1cccc(N2CCN(CC(O)COc3ccc4ccccc4c3)CC2)c1 (configuration not stated)
10	i	.	.	3	4	-1.5	.	.	C[C@@H]1CCCCO[C@H](CN(C)CC2CCCCC2)[C@@H](C)CN([C@H](C)CO)C(=O)c2cc(NS(=O)(=O)c3cccs3)ccc2O1
-3.5	i	.	.	1	2	1.3	.	.	CO[C@@H]1CN(C)C(=O)c2ccc(NC(=O)c3cnccn3)cc2OC[C@H](C)NC[C@H]1C
5.6	i	0.0	5%	-34	-12	45	9	0.66	Cc1cc2ncc(-c3ccc(Cl)cc3)c(N)n2n1
-1.2	i	-16	?	-10	-20	15	-22	0.63	CCN(CC)C(=O)CSc1nnc2nnc3cc(Cl)ccc3n12
-24	i	1.8	32%	11	6	-1.4	-8	0.67	O=C(NCCN1CCCOC1=O)C(=O)NCCN1CCCOC1=O
.	.	-0.3	-2%	.	.	.	-4	0.67	COc1ccc(S(=O)(=O)NC2(C(F)(F)F)N=C3SCCN3C2=O)cc1 (configuration not stated)
.	.	-3.6	-4%	.	.	.	-10	0.72	O=C(O)COc1cccc2ccccc12
-1.5	i	-18	.	.	.	.	.	.	Cc1ccc(NC(=O)C2(C)CCN2C(=O)Cc2cc(F)ccc2F)cc1 (configuration not stated)
2.1	i	2.7	-10%	-22*	-17*	-2.4*	4	0.62	CC(C)c1ccc(OCC(=O)NCc2ccccc2)cc1
-3.7	i	.	.	5	16	3.0	.	.	COCC#Cc1cnc2c(c1)C(=O)N([C@@H](C)CO)C[C@@H](C)[C@@H](CN(C)Cc1ccccc1F)O2
-24	i	1.0	.	-54	-81	-25	.	0.71	COc1ccc(Br)cc1CN(C)CC(=O)Nc1c(Cl)cccc1Cl
.	.	2.9	7%	.	.	.	1	0.71	CCOc1ccc(C(=O)NC2CCN(C(=S)NCc3ccco3)CC2)cc1
-1.8	i	2.9	4%	2	4	0.7	-10	0.63	COc1cccc(CNC(=O)Cc2ccc(OC)c(S(=O)(=O)N3CCOCC3)c2)c1
6.0	i	2.4	7%	.	.	.	0	0.71	O=C(c1ccc(Cn2cc(Br)cn2)cc1)N1CCN(c2ccccc2)CC1
-1.2	i	1.1	8%	9	9	-0.3	19	0.7	Cc1cccc(C)c1NC(=O)Cn1nnnc1N
1.5	.	2.4	3%	8	4	0.1	-1	0.68	Cc1cccc(C)c1NC(=O)CNC(=O)Cc1c[nH]c2ccccc12
-4.2	i	-0.8	.	.	.	.	.	.	CCOC(=O)[C@]12CCC=C1N(Cc1ccccc1)C(=O)[C@H](CC(=O)N1CCSCC1)C2
.	.	-1.7	.	.	.	.	24	0.73	Cn1c(=O)c2c(nc(NCCCN3CCOCC3)n2Cc2cccc(Cl)c2)n(C)c1=O
.	i	-4.1	.	-4	4	-1.3	-9	0.76	CCCCCCCNC(=O)C1(CC2CC(c3cccc(Br)c3)=NO2)CCN(C(=O)c2cc(OCC)c(OCC)c(OCC)c2)CC1 (configuration not stated)
0.5	i	-1.8	.	-1	0	-0.7	58	.	COc1ccc(N2CCN(C(=O)COC(=O)CNC(=O)c3ccc(C)cc3)CC2)cc1
3.0	.	2.1	-7%	-26	-46	-11	54	0.7	O=C(COc1ccccc1[N+](=O)[O-])Nc1cc(Cl)ccc1C(=O)O
-1.6	i	.	.	0	2	0.5	.	.	CN1C(=O)c2cc(NC(=O)c3ccc(F)cc3)ccc2OC[C@@H]2O[C@H](CC(=O)O)CC[C@@H]21
-2.5	i	2.8	.	9	13	-1.4	-7	.	C/C(=N\NC(=O)C1CC1)c1ccc(Cl)cc1
.	.	-2.3	3%	.	.	.	-1	0.73	CCn1nnc2sc3c(c2c1=O)CCC(C)C3 (configuration not stated)
1.5	i	.	.	4	-9	14	.	.	C[C@H](CO)N1C[C@H](C)[C@@H](CN(C)S(=O)(=O)c2ccc(F)cc2)Oc2ccc(NC(=O)Nc3ccc(F)cc3)cc2C1=O
-4.4	i	-2.3	.	-56	-77	-19	.	0.65	Cc1ccc(CSc2nc(-c3ccccc3)c(C#N)c(=O)[nH]2)cc1
3.1	i	.	.	-1	-13	6.2	.	.	Cc1ccccc1S(=O)(=O)N(C)C[C@H]1OCc2ccccc2-c2ccccc2C(=O)N([C@@H](C)CO)C[C@H]1C
3.9	i	1.2	.	-53	-79	-17	.	.	COc1ccccc1CCn1cnc(-c2ccc(Br)cc2)c1C(C)C
.	.	1.6	-3%	.	.	.	-14	0.74	O=C(O)Cn1nnc(-c2cccs2)n1
.	.	0.1	-5%	.	.	.	-34	0.75	COc1cc(CNCCN2CCOCC2)ccc1OCc1ccc(Cl)cc1
-3.1	i	.	.	6	8	-2.4	.	.	C[C@@H]1CN([C@H](C)CO)C(=O)Cc2cc(NC(=O)c3ccncc3)ccc2O[C@@H]1CN(C)C(=O)Nc1ccccc1
-1.2	i	2.0	-1%	5	5	0.1	-6	0.67	CC(=O)c1ccc(-n2ccc(=O)cc2)cc1

Only ALR inh (two entries from above):
SMILES | ALR inh
O=C(c1ccc(Cn2cc(Br)cn2)cc1)N1CCN(c2ccccc2)CC1 | 0
Cc1cccc(C)c1NC(=O)Cn1nnnc1N | 19

Carrying on.
AF4-AF9 inh	FGF22 binding	HNF4A DNA FP	Vif A3G	Ecoli rRNA inh	Ecoli rRNA inh OD600	Ecoli rRNA inh RFP	ALR inh	E coli growth	compound
0.9	i	1.2	?	5&4	2&10	0.9&1.6	0	0.69	CCOC(=O)NC1(NCc2ccccc2)Oc2ccccc2O1
.	.	-0.4	25%	.	.	.	-1	0.66	O=C1C2CC=CCC2C(=O)N1c1n[nH]c(-c2ccccc2)n1 (configuration not stated)
.	.	-0.5	3%	.	.	.	-8	0.8	Cc1ccc(Cn2c(C)cc3c(c2=O)C(c2cccs2)C(C#N)=C(N)O3)cc1 (configuration not stated)
0.6	i	9.2	5%	2	-5	-1.2	2	0.72	Cc1ccc(S(=O)(=O)/N=C(/Nc2ccc3[nH]c(=O)[nH]c3c2)c2ccccc2)cc1
.	.	2.0	4%	.	.	.	-6	0.66	CC1CCN(CCCNC(=O)c2n[nH]c(=O)c3ccccc23)CC1
10	i	-0.8	1%	-27	-27	-5.8	49	0.67	Cc1cccc(C(=O)NCC(c2ccco2)N2CCc3ccccc32)c1 (configuration not stated)
.	.	1.7	-2%	.	.	.	-1	0.69	CC(=O)Nc1cc(S(=O)(=O)Nc2cccc(C)c2)c(C)cc1C
5.5	i	2.1	-2%	5	1	-7.9	-2	0.68	CCCCCC(=O)Nc1c(-c2ccc(OC)cc2)c(=O)c2ccccc2n1C
.	.	-0.6	11%	.	.	.	-3	0.74	CCSc1ncnc2sc3c(c12)CCC3
-1.5	i	1.8	-2%	8	10	1.1	-16	0.64	CCNc1nc(Cl)nc(N(NC(C)=O)C(C)C)n1
-2.0	i	3.0	7%	6	6	-1.5	.	0.64	Cc1c(NC(=O)COC(=O)CSc2ccc([N+](=O)[O-])cc2)c(=O)n(-c2ccccc2)n1C
-0.5	i	1.9	0%	4	3	-2.8	-1	0.65	COCCNC(=O)C1CCC(CNS(=O)(=O)c2cccc3nsnc23)CC1 (configuration not stated)
-2.4	i	-7.6	-3%	-18*	-11*	4.2*	1	0.72	Cn1c(=O)n(C)c2cc([N+](=O)[O-])c(N3CCN(C(=O)c4cccc(F)c4)CC3)cc21

Structures listed so far that contain an aryl methoxy group (seven):
AF4-AF9 inh	FGF22 binding	HNF4A DNA FP	Vif A3G	Ecoli rRNA inh	Ecoli rRNA inh OD600	Ecoli rRNA inh RFP	ALR inh	E coli growth	compound
.	.	-0.3	-2%	.	.	.	-4	0.67	COc1ccc(S(=O)(=O)NC2(C(F)(F)F)N=C3SCCN3C2=O)cc1 (configuration not stated)
-24	i	1.0	.	-54	-81	-25	.	0.71	COc1ccc(Br)cc1CN(C)CC(=O)Nc1c(Cl)cccc1Cl
-1.8	i	2.9	4%	2	4	0.7	-10	0.63	COc1cccc(CNC(=O)Cc2ccc(OC)c(S(=O)(=O)N3CCOCC3)c2)c1
0.5	i	-1.8	.	-1	0	-0.7	58	.	COc1ccc(N2CCN(C(=O)COC(=O)CNC(=O)c3ccc(C)cc3)CC2)cc1
3.9	i	1.2	.	-53	-79	-17	.	.	COc1ccccc1CCn1cnc(-c2ccc(Br)cc2)c1C(C)C
.	.	0.1	-5%	.	.	.	-34	0.75	COc1cc(CNCCN2CCOCC2)ccc1OCc1ccc(Cl)cc1
5.5	i	2.1	-2%	5	1	-7.9	-2	0.68	CCCCCC(=O)Nc1c(-c2ccc(OC)cc2)c(=O)c2ccccc2n1C
